Compound activity: PubChem, several laboratories
MT1-MMP act inh: blocks activation of human MT1-MMP; P50281; HT1080 RFP-PRO-GFP cells, GFP/RFP ratio fluorescence, overnight; percent of plate control window, DMSO zero; GFP/RFP ratio change, % at 20 µM; 360,000 compounds, 0.061% hits; AID 651647;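 active = GFP/RFP ratio change of at least 30% with cell ATP level not reduced by more than half and red fluorescence within 50% of control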; note: strong numbers were not always called active
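Compound: 20 µM single dose, 1% DMSO / System: HT1080 RFP-PRO-GFP cells / Controls: DMSO and RFP-L50D-GFP cell wells / Read-out basis: GFP/RFP fluorescence ratio / Schedule: overnight compound exposure at 37 °C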
eIF4H FP inh: inhibitors of RNA binding by human eIF4H; Q15056; 290,000 compounds, 0.94% hits; AID 2012; eIF4H fluorescence polarization binding assay; inhibition, % at 35 µM;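 active = 50% or more with normal probe brightness, or confirmed in later tests; inconclusive = above 50% with abnormal brightness, or retests that disagree; inactive = below 50% or failed in later tests; about a fifth of its hits are not listed in these tables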;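 note: calls also rest on retests at 20 µM and on dose response follow-up; 0% = protein and probe with vehicle and 100% = probe without protein; strong numbers were not always called active; many hits fall short of the cut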
HIV Env fusion: HIV envelope-mediated fusion inhibition | 360,000 compounds, 1.1% hits | inhibition, % at 12.3 µM | HeLa-JRFL Env/CEM21 cell fusion, luciferase | AID 651610;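 active = mean replicate inhibition score of at least 50 and every replicate individually at or above 50; inconclusive = only one of the two criteria met; inactive = mean below 50 and not all replicates reaching 50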;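 note: 0% = plate neutral controls and 100% = maraviroc near 300 nM; one replicate is shown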
CSC inhib: cancer stem cell inhibition | AID 2717 | inhibition, % at 7.5 µM | cancer stem cell-like cells viability, luminescence | 300,000 compounds, 1.1% hits;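 active = mean at 75% or more and at least half the replicates too; inconclusive = mean and replicates disagree; tested in HMLE shEcad cells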;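 note: 0% = median of negative and 100% = median of positive control wells; the first replicate is given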
PABP polyA inh: PABP-poly(A) binding inhibition; P11940; PABP-poly(A) RNA binding, fluorescence polarization; inhibition, % at 35 µM; 290,000 compounds, 1% hits; AID 2014;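 active = 50% or more with normal probe brightness, or confirmed in later tests; inconclusive = above 50% with abnormal brightness, or retests that disagree; inactive = below 50% or failed in later tests; about a fifth of its hits are not listed in these tables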;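 note: calls also rest on retests at 20 µM and on dose response follow-up; controls were probe without protein and protein plus probe with vehicle; some compounds called inactive have numbers as strong as hits; many hits fall short of the cut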
Target sequence (P11940 whole entry, looked up): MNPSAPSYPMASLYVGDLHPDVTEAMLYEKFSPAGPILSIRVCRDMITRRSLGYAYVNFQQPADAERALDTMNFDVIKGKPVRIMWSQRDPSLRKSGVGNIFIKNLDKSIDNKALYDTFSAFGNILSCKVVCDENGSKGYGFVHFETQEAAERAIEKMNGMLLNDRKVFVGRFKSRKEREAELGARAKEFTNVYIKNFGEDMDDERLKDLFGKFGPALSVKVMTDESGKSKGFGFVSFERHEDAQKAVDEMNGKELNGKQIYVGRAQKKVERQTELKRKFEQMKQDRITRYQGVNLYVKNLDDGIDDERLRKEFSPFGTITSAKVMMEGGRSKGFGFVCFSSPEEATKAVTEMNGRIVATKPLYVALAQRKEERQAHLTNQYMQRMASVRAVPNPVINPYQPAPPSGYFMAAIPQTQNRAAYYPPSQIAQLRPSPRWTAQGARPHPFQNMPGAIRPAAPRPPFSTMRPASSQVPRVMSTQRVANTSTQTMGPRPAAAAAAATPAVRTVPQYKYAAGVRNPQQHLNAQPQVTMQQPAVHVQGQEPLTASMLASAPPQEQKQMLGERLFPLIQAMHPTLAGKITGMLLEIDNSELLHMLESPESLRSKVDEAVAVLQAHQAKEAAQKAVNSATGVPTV
UUG fidelity: yeast start codon fidelity modulation; 350,000 compounds, 0.13% hits; activity score, % at 18.7 µM; AID 602363; S. cerevisiae UUG-firefly luciferase reporter, luminescence/redox ratio;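 active = replicate mean at a twofold rise or more, about +100% in these data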;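 note: firefly luciferase made from a UUG start codon reports start codon fidelity; reporter light over untreated wells divided by growth signal over untreated wells; some hits fall short of that in this replicate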
Rce1 inh: blocks yeast Ras-converting enzyme | AID 2563 | yeast membranes, quenched prenylated peptide cleavage fluorescence | calls only | 290,000 compounds, 0.27% hits | Q03530;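 active = fall in fluorescence gain of 50% or more versus controls, with final raw signal at or below 3038400; inconclusive = same 50% fall but final raw signal above 3038400; inactive = fall in fluorescence gain under 50%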;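 note: plate controls were neutral control wells for no effect and wells lacking membranes for full effect; tested at 10 µM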
MT1-MMP act inh RFP: recorded beside MT1-MMP act inh, whose call it bears; RFP signal change, %; measured here: RFP expression control read;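 0 = vehicle wells; hits needed this value within 50% of zero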
* marks the source's active call; other numbers are inactive results.

O=C(NCc1ccccn1)C1(C(F)(F)F)C/C(=C\CCO)CCCO1 (stereo not drawn) was read as MT1-MMP act inh 3, HIV Env fusion 5, CSC inhib 8, UUG fidelity 1, Rce1 inh inactive and MT1-MMP act inh RFP -1.
Cc1cc(NC(=O)CS(=O)CC(=O)Nc2c(C)cccc2C)ccc1-n1cnnn1 (stereo not drawn) was read as MT1-MMP act inh 1, eIF4H FP inh -18, HIV Env fusion 6, CSC inhib -2, PABP polyA inh -10, UUG fidelity -20, Rce1 inh inactive and MT1-MMP act inh RFP -1.
Screening Cc1ccc(N=C2NC(=O)C(CC(=O)NCc3ccccc3)S2)cc1C (stereo not drawn) returned MT1-MMP act inh 2, eIF4H FP inh 13, HIV Env fusion 18, PABP polyA inh 19, Rce1 inh inactive and MT1-MMP act inh RFP 3.
Screening COc1cc([C@H]2c3c(cc(OC)c(O)c3OC)C[C@@H](CO)[C@@H]2CO[C@@H]2O[C@H](CO)[C@@H](O)[C@H](O)[C@H]2O)cc(OC)c1O returned MT1-MMP act inh 2, CSC inhib -9, UUG fidelity -7 and MT1-MMP act inh RFP 4.
NC(=S)NNc1cccc(Cl)c1 was read as MT1-MMP act inh -1, eIF4H FP inh 2, HIV Env fusion -28, CSC inhib -9, PABP polyA inh 0, UUG fidelity -53, Rce1 inh inactive and MT1-MMP act inh RFP 1.
`O=C(CNc1ccccc1Cl)Nc1cc(S(=O)(=O)N2CCOCC2)ccc1Cl` gave MT1-MMP act inh 3, HIV Env fusion -2, UUG fidelity -8 and MT1-MMP act inh RFP -2.
`NC(=O)CCC(NS(=O)(=O)c1ccc(Cl)cc1)C(=O)NCc1ccc(Cl)cc1` (stereo not drawn) gave MT1-MMP act inh 5, eIF4H FP inh -4, CSC inhib -2, PABP polyA inh 4, Rce1 inh inactive and MT1-MMP act inh RFP 4.
`COc1ccc(-c2nnn(CC(=O)N(CCCO)C(C(=O)NC3CCCC3)c3ccc(F)cc3)n2)cc1` (stereo not drawn) gave MT1-MMP act inh 2, eIF4H FP inh -2, HIV Env fusion 3, PABP polyA inh 3, Rce1 inh inactive and MT1-MMP act inh RFP 2.
Screening Cc1ccc(-c2nn3c(C)nnc3s2)cc1NC(=O)C(C)C returned MT1-MMP act inh 3, eIF4H FP inh -3, HIV Env fusion -11, CSC inhib -13, PABP polyA inh -2, UUG fidelity -26, Rce1 inh inactive and MT1-MMP act inh RFP 6.
Screening CCOC(=O)N1CCC(NC(=S)Nc2ccc3nc(N4CCN(C)CC4)cc(C)c3c2)CC1 returned MT1-MMP act inh -8, eIF4H FP inh 0, HIV Env fusion 5, CSC inhib 23, PABP polyA inh -1, UUG fidelity -25, Rce1 inh inactive and MT1-MMP act inh RFP -2.
`CCC/C(=C1/C(=O)CC(C)(C)C(C(=O)OC)C1=O)N1CCCC1` (stereo not drawn) gave MT1-MMP act inh 2, eIF4H FP inh -4, CSC inhib -4, PABP polyA inh -2, UUG fidelity -12, Rce1 inh inactive and MT1-MMP act inh RFP 2.
Cc1cc(C)nc(N2CCC(C(=O)O)CC2)n1 was read as MT1-MMP act inh -14, eIF4H FP inh 18, HIV Env fusion 25, CSC inhib 5, PABP polyA inh 39, Rce1 inh inactive and MT1-MMP act inh RFP -1.
For COc1cccc(CNC(=O)Cn2cccc2)c1 the results were MT1-MMP act inh 3, eIF4H FP inh 1, HIV Env fusion -14, CSC inhib -10, PABP polyA inh -1, UUG fidelity 6, Rce1 inh inactive and MT1-MMP act inh RFP 1.
NC1=NC(=O)C(Cc2ccc(OC(F)(F)F)cc2)S1 (stereo not drawn) was read as MT1-MMP act inh -3, eIF4H FP inh -2, HIV Env fusion 9, CSC inhib 2, PABP polyA inh -5, UUG fidelity -11, Rce1 inh inactive and MT1-MMP act inh RFP 2.
`CCOC(=O)c1c(NC(=O)CSc2nnc(-c3ccco3)o2)sc(C)c1C` gave MT1-MMP act inh 3, eIF4H FP inh -7, HIV Env fusion -6, CSC inhib -8, PABP polyA inh -3, UUG fidelity -3, Rce1 inh inactive and MT1-MMP act inh RFP 3.
Screening CC(C)N(Cc1cc2ccccc2[nH]c1=O)C(=O)c1cccnc1 returned MT1-MMP act inh -1, eIF4H FP inh -6, CSC inhib -4, PABP polyA inh 40, Rce1 inh inactive and MT1-MMP act inh RFP 0.
`COc1ccc(N(CC(=O)Nc2cc(C(=O)O)ccc2C)S(=O)(=O)c2c(C)noc2C)cc1` gave MT1-MMP act inh 4, eIF4H FP inh 3, HIV Env fusion -48, CSC inhib -7, PABP polyA inh -3, UUG fidelity 2, Rce1 inh inactive and MT1-MMP act inh RFP 0.
For CCC1(c2ccccc2)NC(=O)N(CC(=O)N2CCN(S(=O)(=O)c3ccccc3)CC2)C1=O (stereo not drawn) the results were MT1-MMP act inh 4, eIF4H FP inh -6, CSC inhib 1, PABP polyA inh 20, UUG fidelity 8, Rce1 inh inactive and MT1-MMP act inh RFP 6.
Screening NS(=O)(=O)c1ccc(NC(=O)Nc2ccc3c(c2)OCO3)cc1 returned MT1-MMP act inh 1, eIF4H FP inh -9, HIV Env fusion -10, CSC inhib 3, PABP polyA inh -1, UUG fidelity -18, Rce1 inh inactive and MT1-MMP act inh RFP 4.
For O=C(Nc1c(C(=O)NCc2ccco2)cnn1-c1ccccc1)c1ccc(F)cc1 the results were MT1-MMP act inh -5, eIF4H FP inh -6, CSC inhib -14, PABP polyA inh 0, UUG fidelity -19, Rce1 inh inactive and MT1-MMP act inh RFP -3.
Cc1cc(C)c(S(=O)(=O)NCc2ccncc2)c(C)c1 was read as MT1-MMP act inh -8, eIF4H FP inh -11, HIV Env fusion inconclusive, CSC inhib 5, PABP polyA inh 2, UUG fidelity -12, Rce1 inh inactive and MT1-MMP act inh RFP -17.
CCOc1ccc(C(=O)Nc2ccc3[nH]ncc3c2)cc1 was read as MT1-MMP act inh 1, eIF4H FP inh 4, HIV Env fusion -56, CSC inhib -2, PABP polyA inh 6, UUG fidelity -21, Rce1 inh inactive and MT1-MMP act inh RFP -2.
For O=C(Nc1ccc2c(c1)OCO2)c1cccc(S(=O)(=O)N2CCOCC2)c1 the results were MT1-MMP act inh -1, eIF4H FP inh 5, HIV Env fusion -15, CSC inhib -14, PABP polyA inh -4, UUG fidelity -15, Rce1 inh inactive and MT1-MMP act inh RFP -3.
Screening CC1CCCN(c2cc(N(C)CCO)c([N+](=O)[O-])c3nonc23)C1 (stereo not drawn) returned MT1-MMP act inh 8, eIF4H FP inh -3, HIV Env fusion -4, CSC inhib -5, PABP polyA inh 15, UUG fidelity 5, Rce1 inh inactive and MT1-MMP act inh RFP -7.
COc1coc(C(O)CN)cc1=O (stereo not drawn) was read as MT1-MMP act inh -136, eIF4H FP inh 9, HIV Env fusion -12, CSC inhib -7, PABP polyA inh -2, Rce1 inh inactive and MT1-MMP act inh RFP -18.
O=C(CN1C(=O)COc2ccccc21)NCCCN1CCc2ccccc2C1 was read as MT1-MMP act inh 0, eIF4H FP inh -6, CSC inhib -3, PABP polyA inh 3, UUG fidelity 0, Rce1 inh inactive and MT1-MMP act inh RFP 2.
CCCn1c(SCC(=O)C(C)(C)C)nc2ccccc21 was read as MT1-MMP act inh -7, eIF4H FP inh -9, HIV Env fusion 11, PABP polyA inh 9, Rce1 inh inactive and MT1-MMP act inh RFP -3.
COc1ccccc1-c1nc(C#N)c(NCCCn2ccnc2)o1 was read as MT1-MMP act inh 1, eIF4H FP inh 1, HIV Env fusion -15, CSC inhib -1, PABP polyA inh 5, Rce1 inh inconclusive and MT1-MMP act inh RFP 3.
Screening CC(=O)NC(CC(=O)Nc1nc(-c2ccccc2)c(C(C)=O)s1)c1ccccc1 (stereo not drawn) returned MT1-MMP act inh -4, eIF4H FP inh -2, HIV Env fusion -20, CSC inhib 0, PABP polyA inh 9, UUG fidelity 10, Rce1 inh inactive and MT1-MMP act inh RFP -2.
Cn1cnc(S(=O)(=O)N2CCCCC2c2cc(C(=O)NCc3ccc(Cl)c(Cl)c3)no2)c1 (stereo not drawn) was read as MT1-MMP act inh 2, HIV Env fusion -12, UUG fidelity 6 and MT1-MMP act inh RFP 2.
Screening Cc1nnc2n(-c3ccccc3)c(=O)c3c4c(sc3n12)COC(C(C)C)C4 (stereo not drawn) returned MT1-MMP act inh 0, eIF4H FP inh 0, CSC inhib -12, PABP polyA inh 3, UUG fidelity -10, Rce1 inh inactive and MT1-MMP act inh RFP 6.
Screening CCOc1ccccc1NC(=O)CN1CCC(NC(=O)Nc2ccccc2)CC1 returned MT1-MMP act inh 2, eIF4H FP inh -5, HIV Env fusion -4, CSC inhib -2, PABP polyA inh 2, UUG fidelity -15, Rce1 inh inactive and MT1-MMP act inh RFP -1.
For O=C(O)CCC(=O)Nc1ccc(Cc2ccc(NC(=O)CCC(=O)O)c(O)c2)cc1O the results were MT1-MMP act inh 2, eIF4H FP inh 15, HIV Env fusion -3, CSC inhib -18, PABP polyA inh 11, UUG fidelity -6, Rce1 inh inactive and MT1-MMP act inh RFP 9.
For COc1cc(CC(=O)Nc2cccc(S(=O)(=O)N(C)c3ccccc3)c2)cc(OC)c1OC the results were MT1-MMP act inh 5, CSC inhib 0, UUG fidelity -7 and MT1-MMP act inh RFP -27.
CC1CCN(S(=O)(=O)c2ccc(NC(=O)CCN3C(=O)C4CC=CCC4C3=O)cc2)CC1 (stereo not drawn) was read as MT1-MMP act inh 4, HIV Env fusion 12, UUG fidelity -15 and MT1-MMP act inh RFP 1.
Screening Cn1c(=O)c2c(ncn2Cc2cc(-c3ccccc3)no2)n(C)c1=O returned MT1-MMP act inh -2, eIF4H FP inh 3, CSC inhib -1, PABP polyA inh 1, UUG fidelity 2, Rce1 inh inactive and MT1-MMP act inh RFP -8.
`CCc1cccc2c(C(=O)Cn3nnc(-c4ccc(OC)c(OC)c4)n3)c[nH]c12` gave MT1-MMP act inh 5, eIF4H FP inh -4, CSC inhib 21, PABP polyA inh -4, UUG fidelity -5, Rce1 inh inactive and MT1-MMP act inh RFP -13.
For CC(C)(C)OC(=O)C[C@H]1C/C=C\C[C@@H](CC(=O)N(CCO)Cc2ccccc2)C(=O)N[C@@H](c2ccccc2)COC1=O the results were MT1-MMP act inh -3, HIV Env fusion -22, CSC inhib -18, UUG fidelity 11 and MT1-MMP act inh RFP 2.
For C/C(=N\Nc1nc(C)cc(-c2ccccc2)n1)c1ccc(F)cc1 the results were MT1-MMP act inh 4, eIF4H FP inh -14, HIV Env fusion -1, CSC inhib 17, PABP polyA inh 8, UUG fidelity -5, Rce1 inh inactive and MT1-MMP act inh RFP -16.
For O=C(c1ccc(N2CCN(C(=O)c3ccc(F)c(F)c3)CC2)cc1)c1cccc(F)c1 the results were MT1-MMP act inh 1, eIF4H FP inh -3, HIV Env fusion 28, CSC inhib 9, PABP polyA inh 1, UUG fidelity -3, Rce1 inh inactive and MT1-MMP act inh RFP -8.
`Cc1ccc(OCC(=O)c2cc(C)n(CC(F)(F)F)c2C)c([N+](=O)[O-])n1` gave MT1-MMP act inh 4, eIF4H FP inh 5, HIV Env fusion -16, CSC inhib 0, PABP polyA inh -8, Rce1 inh inactive and MT1-MMP act inh RFP -5.
Screening CCOC(=O)Cc1csc(NC(=S)NC(=O)c2ccc(F)cc2)n1 returned MT1-MMP act inh 0, eIF4H FP inh -3, CSC inhib -6, PABP polyA inh -7, Rce1 inh inactive and MT1-MMP act inh RFP 0.
